Cruzain inh Det = qHTS Assay for Promiscuous and Specific Inhibitors of Cruzain (with detergent) | Potency, µM, inactives show max response, negative = inhibition, hits mostly inhibitors | purified cruzain, Z-FR-AMC fluorescence, 0.01% Triton | hit rate 0.43% among 200,000;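 further: plate controls were neutral wells for no effect and buffer without enzyme for full effect; nearly all actives have a fitted effect of over 40% in size; top concentration of the series not given in the record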
Target sequence (P25779 123-467 limits assumed): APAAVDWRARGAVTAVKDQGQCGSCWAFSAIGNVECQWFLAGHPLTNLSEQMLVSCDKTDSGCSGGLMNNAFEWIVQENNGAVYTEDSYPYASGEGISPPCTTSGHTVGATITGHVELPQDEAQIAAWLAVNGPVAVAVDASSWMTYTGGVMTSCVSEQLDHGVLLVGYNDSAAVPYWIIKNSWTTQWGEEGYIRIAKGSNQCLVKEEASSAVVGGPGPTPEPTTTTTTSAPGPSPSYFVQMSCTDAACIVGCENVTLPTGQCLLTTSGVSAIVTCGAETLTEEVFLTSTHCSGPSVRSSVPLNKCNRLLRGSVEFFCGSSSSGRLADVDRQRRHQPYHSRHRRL
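Detergent-containing run (0.01% Triton X-100) in acetate buffer pH 5.5 with 5 mM DTT: enzyme at 1.5 nM final, 15 min compound preincubation at room temperature, then 2 uM Z-FR-AMC substrate. Activity taken as 60 s fluorescence increase at 360/450 nm.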
Marburg entry inh = qHTS for inhibitors of binding or entry into cells for Marburg Virus | Marburg virus pseudotyped entry inhibition, cell reporter; control for the full effect not named in the record; about a third of the inactives were read at about 46 µM | AID 540276, 2011 | Potency, µM (series often up to 37.8 µM), for the others: at the top dose activity change, negative = inhibition, hits mostly inhibitors | hit rate 1.8% among 300,000; active = well fitted inhibition curve with a large enough effect; inconclusive = small, poorly fitted or top-dose-only effect, or effect the other way; inactive = flat fitted curve, though single readings scatter; tested in HEK293 cells; about a fifth of its hits are not listed in these tables; further: on the % scale 0 is the no-effect control and ±100 the full control effect; luciferase read-out
Lassa entry inh = qHTS for Inhibitors of binding or entry into cells for Lassa Virus; Potency, µM (series often up to 37.9 µM), for inactives: at the top dose activity change, negative = inhibition, actives largely listed as inhibitors; Lassa virus pseudotype entry inhibition, cell reporter; control for the full effect not named in the record; AID 540256, 2011; hit rate 1.2% among 300,000; active means well fitted inhibition curve with a large enough effect; inconclusive means small, poorly fitted or top-dose-only effect, or effect the other way; inactive means flat fitted curve, though single readings scatter; tested in HEK293 cells; further: on the % scale 0 is the no-effect control and ±100 the full control effect; nearly all actives have a fitted effect of over 50% in size; luciferase read-out
NS1 inh = qHTS Assay for Inhibitors of Influenza NS1 Protein Function | S. cerevisiae slowed by influenza A NS1, growth recovery by OD600 | Potency, µM (highest dose often 46.1 µM), for inactives: at the highest dose activity, positive = more growth | hit rate 0.4% among 270,000 | AID 2326, 2010; active means well fitted rising curve with a large enough effect; inconclusive means small, poorly fitted or top-dose-only effect; inactive means no such curve, though single readings can be large or run the other way; further: nearly all actives have a fitted effect of over 50% in size
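Compounds were scored for reversing the slow growth caused by influenza A NS1 in S. cerevisiae, measured by optical density at 600 nm. Assay medium contained 2% galactose at pH 6.0; NS1-free yeast of the same strain were the positive control.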
StopGo reporter = High Throughput Screening for Foot and Mouth Disease Virus Antivirals; human cells with a luciferase reporter of 2A StopGo recoding; control for the full effect not named in the record; Potency, µM (titrated, usually from 57.9 µM), for inactives: top-dose signal change, negative = less light; hit rate 1.2% among 410,000; active = well fitted falling curve with a large enough effect; inconclusive = small, poorly fitted or top-dose-only effect; inactive = no such curve, though single readings can be large or run the other way; tested in HEK293T cells; further: on the % scale 0 is the no-effect control and ±100 the full control effect; nearly all actives have a fitted effect of over 45% in size; luciferase light after 4 h
Cruzain noTriton = qHTS Assay for Promiscuous and Specific Inhibitors of Cruzain (without detergent); purified cruzain, Z-FR-AMC fluorescence, no detergent; hit rate 2.3% among 200,000; Cruzipain (Trypanosoma cruzi), P25779; Potency, µM, without a hit: max response, negative = inhibition, most hits filed as inhibitors;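 further: plate controls were enzyme without inhibitor for no effect and buffer without enzyme for full effect; nearly all actives have a fitted effect of over 40% in size; top concentration of the series not given in the record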
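Detergent-free condition (0.00005% Triton X-100) in acetate buffer pH 5.5 with DTT. 1.5 nM enzyme and compound were pre-mixed 15 min, then 2 uM Z-FR-AMC substrate added; reaction progress from fluorescence change between first and third reads (60 s).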
SARS PLpro yeast = qHTS of Yeast-based Assay for SARS-CoV PLP; S. cerevisiae expressing SARS-CoV PLpro, growth rescue; control for the full effect not named in the record; Potency, µM (highest dose often 32.9 µM), without a hit: at the top dose activity, positive = growth rescue; hit rate 0.19% among 330,000; AID 485353, 2010; active means well fitted rising curve with a large enough effect; inconclusive means small, poorly fitted or top-dose-only effect; inactive means no such curve, though single readings can be large or run the other way; further: 0% is about no effect; nearly all actives have a fitted effect of over 55% in size; growth read by luminescence after 48 h
RE007 growth inh = qHTS Assay for Inhibitors of the HIV-1 protein Vpr. S. pombe RE007 Vpr strain, BacTiter-Glo ATP luminescence, 24 h; control for the full effect not named in the record. Potency, µM (highest dose often 92.2 µM), for inactives: top-dose activity change, negative = less growth. hit rate 0.21% among 360,000. AID 651644, 2012; active = well fitted falling curve with a large enough effect; inconclusive = small, poorly fitted or top-dose-only effect; inactive = no such curve, though single readings can be large or run the other way;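 further: on the % scale 0 is the no-effect control and ±100 the full control effect; nearly all actives have a fitted effect of over 50% in size; the assay follows cell death caused by Vpr and the record does not say whether a fall means rescue or toxicity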
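Fission yeast strain RE007, carrying one chromosomally integrated HIV-1 vpr copy, was seeded at OD 0.01 in PMG+AL medium with 23 nL pinned compound. After 24 h at 30 °C and 99% humidity, viability was read by BacTiter-Glo luminescence.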
* marks the source's active call; other numbers are inactive results; ? = inconclusive; . = not tested or not shown; [ ] = dose if it differs, or a comment. Unless noted, the call rests on the fitted dose curve; in most records, active means well fitted curve in the direction sought with a large enough effect; inconclusive means small, poorly fitted or top-dose-only effect, or another doubt; inactive means no such curve, though single readings can be large; an effect the other way counts as inactive or inconclusive. Potency means the concentration at half of the fitted maximal effect. Compounds were not picked by outcome, and some 4.7% of all compounds hit somewhere here.

SMILES	Cruzain inh Det	Marburg entry inh	Lassa entry inh	NS1 inh	StopGo reporter	Cruzain noTriton	SARS PLpro yeast	RE007 growth inh
NC(=O)c1ccsc1NC(=O)c1ccc(S(=O)(=O)N2CCCc3ccccc32)cc1	-5.0%	?	?	?	35µM*	?	-31%	5%
Cc1cc(NS(=O)(=O)c2ccc(NC(=O)COc3c(C)ccc(C)c3C)cc2)nc(C)n1	-4.3%	8%[46.1 µM]	23%[46.1 µM]	.	31%[activator]	?	.	.
Cc1nc2sccc2c(=O)n1N	.	.	.	6%	6%	.	4%	3%
Cc1[nH]c(=O)c(C#N)c(C)c1Cc1ccc(Cl)cc1Cl	.	0%[46.1 µM]	-19%[46.1 µM]	-4%	10%	.	0%	2%
CN(CC(=O)NC1CCCCC1)S(=O)(=O)c1ccc(Cl)cc1	-1.6%	?	10%	?	-19%	-1%	3%	5%
CCO[C@H]1OC(C(=O)N2CCN(Cc3ccccc3)CC2)=C[C@@H](C)[C@@H]1CCCO	.	.	.	-3%	-20%	.	1%	3%
CN(C)c1ccc(C(=O)NNC(=O)C23CC4CC(CC(C4)C2)C3)cc1	.	?	10%	.	82%[activator]	.	12%	40%
Fc1ccc(NC(=S)NN2CCOCC2)cc1Cl	-0.1%	-2%	-11%	-3%	2%	-6%	-10%	8%
Cc1ccnc(N(C(=O)c2cccs2)C(=O)c2cccs2)c1	-5.8%	?	15%	0%	-9%	-1%	-8%	?
Cc1ccccc1C(=O)NCCNC(=O)c1cnccn1	.	10%[46.1 µM]	14%	6%	11%	.	-2%	29%
NC(=O)Cn1cc(/C=N\NS(=O)(=O)c2ccc(F)cc2)c2ccccc21	.	0%	?	13%	94%[activator]	.	-1%	2%
COc1ccccc1NC(=O)Cn1nc(-c2ccncc2)nc1SCC(=O)NC1CCCC1	.	?	-16%	.	-15%	.	1%	2%
COc1ccc(-n2ccnc(NCc3cccs3)c2=O)cc1	-4.5%	.	14%[46.1 µM]	.	20%	-24%	.	.
O=C(c1ccco1)N1CCN(CC2CC3C=CC2C3)CC1 (stereo not given)	3.2%	2%	12%	0%	24%	2%	4%	-5%
CCOC(=O)c1ccc(N2C(=O)CC(C)(CC)CC2=O)cc1	.	.	.	?	-2%	.	0%	-3%
Cc1c(Br)c(=O)oc2cc(OCC(=O)N3C[C@H]4C[C@@H](C3)c3cccc(=O)n3C4)ccc12	.	.	.	-11%	-10%	.	0%	4%
CCCCNC(=O)C1CC(c2ccc(C(F)(F)F)cc2)=NO1 (stereo not given)	.	.	.	-1%	-12%	.	-5%	19%
O=C(O)CCSc1nnc(COc2ccc([N+](=O)[O-])cc2)n1-c1ccccc1	.	.	.	6%	-10%	.	1%	-5%
O=C(c1ccc2c(=O)n3c(nc2c1)CCC3)N1CCCSC1=Nc1ccccc1	.	-14%	-3%	.	4%	.	-2%	7%
CCOC(=O)C1CCCN(c2c(NCc3ccco3)c(=O)c2=O)C1 (stereo not given)	-0.5%	.	.	1%	-7%	-4%	-4%	8%
Cc1ccc(N=Cc2c(C)[nH]n(-c3nc4ccccc4[nH]3)c2=O)cc1	-7.7%	?	?	-4%	?	?	-72%	3.2µM*
O=C(c1ccccc1)N1CCCCCC1	2.1%	?	9%	?	0%	-1%	-14%	21%
Cc1ccccc1-c1nc(CS(=O)(=O)CC(=O)N(C)C2CCCCC2)c(C)o1	-4.8%	3%	.	-30%	?	?	-2%	15%
N#C/C(=C\c1cccc(Cl)c1)c1n[nH]c(Cn2cncn2)n1	0.4%	8%	-2%	-14%	-16%	5%	.	4%
Cn1nccc1C(=O)N1CCCC(N2CCN(Cc3ccc4c(c3)OCO4)CC2)C1 (stereo not given)	.	5%	2%	9%	10%	.	2%	-19%

New compounds follow:
SMILES	Cruzain inh Det	Marburg entry inh	Lassa entry inh	NS1 inh	StopGo reporter	Cruzain noTriton	SARS PLpro yeast	RE007 growth inh
CCN1CCN(C(=O)C2CCCN(S(=O)(=O)c3ccc(OC)c(OC)c3)C2)CC1 (stereo not given)	.	0%[46.1 µM]	1%	-2%	-16%	.	11%	0%
CCN1CCN(CC(O)COCc2cc(OC)c(OC)c(OC)c2)CC1 (stereo not given)	.	?	12%	1%	-16%	.	0%	5%
O=C(Nc1cnc2ccccn2c1=O)c1ccc(F)cc1	-7.1%	?	?	?	0%	2%	-3%	4%
O=C(N1CCN(CCO)CC1)N1c2ccccc2CCc2ccccc21	.	.	.	-1%	4%	.	-5%	0%
CCC(=O)NCCc1nc2cc(NC(=O)c3ccc(OC)cc3)ccc2n1C	0.5%	20%	22%	3%	.	-7%	0%	-7%
CC(C)c1cc(C(=O)NCc2ccco2)no1	2.2%	.	.	?	64%[activator]	1%	-13%	-2%
COc1ccc(C2NC(=O)NC(C)=C2C(C)=O)cc1 (stereo not given)	1.5%	7%	0%	4%	-16%	-13%	-12%	6%
CC(=O)c1ccc(N2CCN(S(=O)(=O)c3c(C)[nH]c(=O)[nH]c3=O)CC2)cc1	.	19%[46.1 µM]	6%[46.1 µM]	.	-4%	.	0%	11%
O=C(NCc1ccco1)c1cc(C(=O)C2CC2)c[nH]1	12%	-5%	?	20%	11%	-1%	-2%	20%
CC(=O)N1CCc2cc(S(=O)(=O)C(C)CC(=O)NCc3ccc(C)o3)ccc21 (stereo not given)	.	.	.	13%	-4%	.	21%	-8%
COc1ccc(NC(=O)Cn2cc(C(C)=O)c3ccccc32)cc1	.	.	.	-8%	?	.	18%	-1%
O=C(Cc1ccsc1)NCc1ccccc1F	.	8%[46.1 µM]	12%[46.1 µM]	3%	13%	.	-2%	-6%
CC(=O)N(CCP(=O)(c1ccccc1)c1ccccc1)Cc1ccco1	5.2%	-8%	4%	2%	19%	-2%	0%	1%
CC(NC(=O)[C@@H](C)NC(=O)[C@@H]1Cc2ccccc2CN1C(=O)OC(C)(C)C)c1ccccc1 (stereo not given in full)	.	.	.	20%	-4%	.	5%	-15%
CC(C)c1nnc(SCC(=O)NC2CCCC2)n1C	.	-5%[46.1 µM]	3%[46.1 µM]	19%	18%	.	-2%	-16%
COc1ccccc1CC(=O)N1CCN(c2cccc(Cl)c2)CC1	.	?	-12%	-15%	-21%	.	-11%	-6%
COc1ccc(C(=O)NCCNC(=O)c2cc(OCC(F)(F)F)ccc2OCC(F)(F)F)cc1	2.6%	-11%	10%	9%	-2%	-20%	.	-1%
O=C(O)C(NS(=O)(=O)c1ccc(F)cc1)c1ccccc1 (stereo not given)	.	-1%[46.1 µM]	-3%[46.1 µM]	0%	0%	.	0%	-10%
CC(=O)Nc1cc(C(=O)N2CCOCC2)ccc1S(=O)(=O)c1ccc(C)cc1	4.1%	21%	4%	-1%	-12%	-3%	-1%	6%
CSC1=NC(C)N2C(SC)=NC(C)N12 (stereo not given)	.	.	.	2%	6%	.	1%	-19%
Cc1cc(C(=O)NCc2ccccc2)c2c(C)nn(-c3cccc(Cl)c3C)c2n1	-2.1%	.	4%[46.1 µM]	.	-22%	3%	.	.
O=C(O)COc1ccccc1C1C2C(=O)N(c3ccc(F)cc3)C(=O)C2ON1c1ccccc1 (stereo not given)	-5.2%	?	-2%	?	-8%	?	4%	-5%
CCS(=O)(=O)N1CCC(C(=O)Nc2cc(C)ccc2O)CC1	.	.	.	12%	-5%	.	7%	1%
N#Cc1ccc(C(=O)Nc2cccc(NC(=O)c3ccco3)c2)c(F)c1	.	-9%	-12%	9%	-28%	.	1%	-21%
Oc1ccccc1Oc1ncc(Br)c(N2CCOCC2)n1	0.0%	-16%	18%	-41%	-29%	5%	-1%	6%

Gathered by group: the entries above containing two or more sulfur atoms (three)
SMILES	Cruzain inh Det	Marburg entry inh	Lassa entry inh	NS1 inh	StopGo reporter	Cruzain noTriton	SARS PLpro yeast	RE007 growth inh
NC(=O)c1ccsc1NC(=O)c1ccc(S(=O)(=O)N2CCCc3ccccc32)cc1	-5.0%	?	?	?	35µM*	?	-31%	5%
Cc1ccnc(N(C(=O)c2cccs2)C(=O)c2cccs2)c1	-5.8%	?	15%	0%	-9%	-1%	-8%	?
CSC1=NC(C)N2C(SC)=NC(C)N12 (stereo not given)	.	.	.	2%	6%	.	1%	-19%

Next section:
SMILES	Cruzain inh Det	Marburg entry inh	Lassa entry inh	NS1 inh	StopGo reporter	Cruzain noTriton	SARS PLpro yeast	RE007 growth inh
CNC(=S)N(Cc1ccc(OC)cc1)C1CC(=O)N(c2ccc(Cl)cc2)C1=O (stereo not given)	0.0%	.	.	7%	11%	-8%	-3%	.
COc1ccc2c(c1OC)C(=O)N1N=C(c3ccccc3)CC21 (stereo not given)	-1.3%	5%	5%	-19%	17%	7%	-8%	2%
CCc1nc(NCC2CCCN2CC)c2nnn(Cc3ccccc3F)c2n1 (stereo not given)	2.8%	?	-22%	2%	2%	-12%	0%	1%
Cc1ccc(CNC(=O)c2ccc(Cn3cc(-c4ccc(C)cc4)nc3-c3ccncc3)cc2)cc1	.	.	.	10%	47%[activator]	.	-9%	4%
CC(=O)c1sc(-c2cccc(Cl)c2)nc1C	.	.	.	-5%	32%[activator]	.	3%	-7%
COc1ccccc1C(=O)Nc1ccc2c(c1)CC1(C(=O)N(C)C(=O)N(C)C1=O)C1CCCN21 (stereo not given)	.	17%[46.1 µM]	2%	13%	-8%	.	2%	-4%
COc1cc(S(=O)(=O)NC2CCCCC2)c(C)cc1C	.	?	2%	-32%	61%[activator]	.	1%	9%

Source: PubChem BioAssay
